# Compound activity as filed in PubChem BioAssay.
# LANA-H2B inh: blocks KSHV LANA binding to histone H2A/H2B; cell-free LANA-H2A/H2B peptide, fluorescence polarization; inhibition, % (concentration not given with the values); 320,000 tested, 0.6% active; AID 2629; in the data active = inhibition mostly above about 10%, no sharp cut-off; inactive = mostly below about 6.7%;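 also: stock transfer was 7.5 nL into about 10 µL; 0% = median of vehicle wells and 100% = median of positive control wells; one replicate is shown; the record names a cut of 25% in any replicate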
# T cruzi repl: T. cruzi replication inhibition | T. cruzi beta-gal in NIH3T3, luminescence, 90 h | inhibition, % (test concentration not listed) | 300,000 tested, 1.4% active | AID 1885;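 active = mean inhibition across valid replicates above about 55%, limit read from the data; inconclusive = mean below that limit but half or more replicates reach it; inactive = mean below it, under half of replicates reach it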;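 also: signal also drops with host cell toxicity which is not excluded here; 0% = plate median of DMSO wells and 100% = zero luminescence signal; higher percent means less beta-gal luminescence so fewer parasites; stock transfer was 50 nL into about 50 µL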
# Calb FLC: affects C. albicans growth with fluconazole; 300,000 tested, 0.57% active; C. albicans CaCi-2 (fluconazole-resistant clinical isolate) + fluconazole, Alamar Blue growth, 48 h; growth inhibition, % (no concentration beside the values);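 active = most replicates above 75%; inconclusive = exactly half above 75%; inactive = most below 75%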;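 also: all wells also contain fluconazole at 8 µg/ml as a sub-toxic cotreatment; 0% = median of DMSO wells and 100% = median of geldanamycin control wells; wells of about 8 µL received 7.5 nL stock; the first replicate is given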
# Beta cell apopt: blocks beta cell apoptosis; protection from apoptosis, % (no concentration beside the values); INS-1E cytokine-induced death, ATP luminescence, 48 h; percent of positive-control rescue, neutral wells zero; 300,000 tested, 0.8% active; AID 435005;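 active = all replicates at 75% or more, or half of them and the mean; inconclusive = half reach 75% but not the mean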;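 also: 0% = cytokine-treated negative control wells and 100% = positive control rescue; higher means more ATP so stronger rescue from cytokine killing; wells of about 40 µL received 100 nL stock; the first replicate is given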
# A1 inh: inhibitors of the anti-apoptotic protein A1, read as caspase activation | caspase activation, % (no concentration beside the values) | 330,000 tested, 0.066% active | MEF A1-2A-BIM cells, Caspase-Glo 3/7 luminescence, 3 h; percent of clofoctol response, vehicle zero;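 active = over half of replicate activation scores above 10%, or exactly half above 10 with the replicate mean above 10; inconclusive = replicate mean below 10 yet half the replicates above 10; inactive = over half of replicates below 10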;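 also: wells of about 30 µL received 50 nL stock; many hits fall short of the cut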
# ALR H2O2 inh: inhibitors of human sulfhydryl oxidase ALR; P55789; purified ALR, DTT oxidation, H2O2 HRP-luminol luminescence; inhibition, % (no concentration beside the values); 290,000 tested, 3.8% active;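 active = mean and each replicate at 75% or more; inconclusive = only one of the two met; inactive = neither met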;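 also: stock transfer was 7.5 nL into about 7.5 µL; 0% = neutral wells and 100% = wells with inactivated enzyme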
# Target sequence (P55789 whole entry, looked up): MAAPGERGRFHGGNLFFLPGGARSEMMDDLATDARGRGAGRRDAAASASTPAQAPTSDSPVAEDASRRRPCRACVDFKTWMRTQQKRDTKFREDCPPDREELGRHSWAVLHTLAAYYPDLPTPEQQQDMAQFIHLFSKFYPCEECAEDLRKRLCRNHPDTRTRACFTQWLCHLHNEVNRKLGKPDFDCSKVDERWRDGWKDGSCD
# Beta2AR agonist: human beta-2 adrenergic receptor agonism by FAP; response, % (no concentration beside the values); 340,000 tested, 0.43% active; Am2.2-beta2AR cells, FAP receptor internalization, flow cytometry; reference of the scale not given here; AID 504454;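 active = response above a set limit, near 3 SD of response in nonfluorescent compounds, cut at about 42% in these data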;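 also: stock transfer was 100 nL into about 11 µL; a reference agonist was the positive control; negative values mostly stem from fluorescent compounds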
# Target sequence (P07550 whole entry, looked up): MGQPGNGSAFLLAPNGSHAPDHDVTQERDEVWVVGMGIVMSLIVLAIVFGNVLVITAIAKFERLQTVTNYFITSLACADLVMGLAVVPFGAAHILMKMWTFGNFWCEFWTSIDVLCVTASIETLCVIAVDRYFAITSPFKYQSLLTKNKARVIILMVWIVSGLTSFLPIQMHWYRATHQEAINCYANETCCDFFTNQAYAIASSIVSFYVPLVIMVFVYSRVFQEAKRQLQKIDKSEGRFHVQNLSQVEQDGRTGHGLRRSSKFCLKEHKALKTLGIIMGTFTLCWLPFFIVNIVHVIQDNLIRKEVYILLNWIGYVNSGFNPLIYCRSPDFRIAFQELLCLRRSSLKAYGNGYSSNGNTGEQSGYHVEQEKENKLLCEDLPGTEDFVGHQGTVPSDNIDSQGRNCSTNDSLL
# Ecoli rRNA inh: inhibits bacterial ribosomal RNA function over humanized ribosomes; E. coli WT GFP vs humanized-ribosome RFP mutants, fluorescence, 24 h; active compounds read low; DMSO median 0, no signal -100; GFP signal change (wild-type ribosome), % (concentration not given with the values); 350,000 tested, 1.6% active;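 active = significant combined selectivity score with lowered wild-type GFP, culture density cut under 30%, mutant RFP and density less affected; inactive = any of these conditions unmet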; also: one replicate is shown; some compounds called inactive have numbers as strong as hits
# Ecoli rRNA inh OD600: further read-out of Ecoli rRNA inh, marked with its call; OD600 change, %; measured here: OD600 growth;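 optical density of the mix in the first replicate; 0 = DMSO median and -100 = no signal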
# Ecoli rRNA inh RFP: also measured in Ecoli rRNA inh; calls as there; RFP signal change, %; measured here: RFP humanized mutant strains;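 first replicate; 0 = DMSO median and -100 = no signal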
# * hit, by the source's call; ? = inconclusive; . = no result given. Some of the compounds tested; count on the stated rates, not on these rows.
SMILES,LANA-H2B inh,T cruzi repl,Calb FLC,Beta cell apopt,A1 inh,ALR H2O2 inh,Beta2AR agonist,Ecoli rRNA inh,Ecoli rRNA inh OD600,Ecoli rRNA inh RFP
Cc1c(Cl)cnc(NC(=O)COC(=O)[C@@H](NC(=O)c2ccco2)C(C)C)c1Cl,2.5,.,.,-3,1.8,7,3,0,-3,5.2
CCOc1ccccc1NC(=O)Nc1cccc(C(C)=O)c1,0.4,11,?,7,-0.1,.,-4,.,.,.
c1nnnn1C12CC3CC(CC(C3)C1)C2,-64,-18,1,-4,0.5,-12,2,.,.,.
Cn1c(=O)[nH]c(=O)c2c1nc(N1CCOCC1)n2CC(O)COc1ccc2ccccc2c1 (stereo not drawn),-0.8,5,-6,3,0.4,-2,7,.,.,.
COCCNC(=S)N/N=C(\C)c1ccccc1OC,0.4,-31,9,2,-0.9,17,-2,.,.,.
Cc1ccccc1N1C(=O)c2cccc3cccc(c23)C1=O,-2.0,-39,-2,4,0.2,-1,-6,-3,0,-7.0
COc1ccc(OC(=O)COc2ccccc2C)cc1,-1.0,-5,-3,-4,0.0,25,2,8,-10,-2.6
O=C(CCc1nnc(Cc2ccc3c(c2)OCO3)o1)NCCc1ccccc1Cl,-3.0,-11,-16,.,0.0,-2,12,-9,-13,2.6
O=C(NCc1ccccn1)c1ccc2c(c1)N(Cc1ccccc1)CCS2,3.9,0,-1,-5,0.5,98*,-7,-31,-27,-7.0
COc1ccc(-c2nc(O)c3cnccn23)cc1,4.3,-9,48,1,-0.1,49,4,-2,10,-4.9
CCOc1c2ccccc2nn1CCO,-0.9,.,.,-3,0.2,-15,9,2,3,-2.5
O=C1S/C(=C\c2ccccn2)C(=O)N1Cc1ccccc1F,1.5,-10,8,-1,0.2,-7,4,.,.,.
Cc1[nH]c2ccccc2c1C(c1ccncc1)N1CCN(c2ccccn2)CC1 (stereo not drawn),-3.6,-14,4,-18,-1.1,32,-9,11,4,-1.5
Cc1cc(OCC(=O)N[C@@H](Cc2c[nH]c3ccccc23)C(=O)O)c2c(C)c(C)c(=O)oc2c1,4.0,-16,-3,1,0.3,5,-1,-4,-6,-4.3
CCN(c1ccccc1)S(=O)(=O)c1c[nH]c2ccc([N+](=O)[O-])cc12,-1.9,15,23,-4,0.2,-8,2,-49,-64,-18
COC(=O)c1cc(Cl)c(NC(=O)/C=C/c2ccc(OC)c(OC)c2)cc1OC,1.5,.,9,0,-0.3,0,1,.,.,.
COc1ccc(N2C(=O)C(Cl)=C(Nc3ccccc3OC)C2=O)cc1,0.1,-7,-13,-1,-0.7,-5,3,.,.,.
COC(=O)CCC(=O)OC1(C)C(=O)C2=CN(CC(C)C)C(c3ccc(OC)cc3)=CC2=C(Br)C1=O (stereo not drawn),-2.0,38,17,-8,-0.6,25,.,.,.,.
Cc1cc(C)n(S(=O)(=O)c2ccc3oc(=O)ccc3c2)n1,3.5,-8,10,0,0.2,-2,-5,1,8,-1.0
CC(C)C[C@@H](N)c1nnc(SCC(=O)c2ccc(Cl)cc2)o1,2.7,19,-2,-2,0.1,98*,2,.,.,.
CCCNC(=O)c1sc2c(c1C(=O)Nc1ccccn1)CCCC2,-0.7,25,-31,2,0.3,41,-14,-30,-34,-2.7
CC(c1ccccn1)N(CCN(C)C)C(=S)Nc1ccccc1F (stereo not drawn),-0.9,-22,14,-7,0.3,6,-4,8,-6,-6.4
Cn1c(CN2CCOCC2)nnc1SCC(=O)NC1CCCCC1,1.4,-11,1,-1,-0.4,-5,-7,.,.,.
Cc1cc(NC(=O)CSc2nnc(-c3c[nH]c4ccccc34)n2C)no1,-0.6,-3,-1,-8,-0.9,-27,1,-3,-2,-0.3
O=C(CN(Cc1ccccc1)C(=O)CCC(=O)Nc1nccs1)NCc1ccc(F)cc1,-9.0,-10,0,3,-0.2,-3,-5,1,3,7.1
CCOc1cc(N2CCOCC2)c(OCC)cc1NC(=O)c1cccc(N(C)C)c1,4.7,21,10,0,0.0,73,1,-19,-15,2.2
O=C(Nc1ccc(Cl)cc1)N(C1=NCCC1)c1ccc(OC(F)F)cc1,-3.1,22,-1,0,0.3,-5,-2,-22,-22,-3.3
C/C(=N\Nc1nc2ccccc2[nH]1)c1cc2ccccc2o1,-1.4,24,-24,26,-1.2,?,10,.,.,.
O=C(c1cncc(Br)c1)N1CCN(S(=O)(=O)c2ccccc2)CC1,-4.1,-1,28,-6,0.4,5,0,5,10,-1.4
CN(c1ccc(C(=O)Nc2ccccn2)cc1)S(=O)(=O)c1ccccc1,-1.7,1,0,-2,0.8,.,-2,0,-7,-0.3
Cc1c(C)c2ccc(OCC(=O)Nc3ccc(N4CCC(C)CC4)cc3)cc2oc1=O,-0.5,12,-3,21,-0.2,-2,1,-2,-2,-1.9
O=C(NC1CCCC1)C1CC(=O)N(CCc2ccccc2)C1 (stereo not drawn),-2.4,2,9,-7,0.1,4,-7,.,.,.
O=C1c2ccccc2C(=O)N1CCC#Cc1ccc2cc(C3(O)CCCCC3)oc(=O)c2c1,-0.7,.,.,7,0.8,-20,5,2,6,-16
Cc1cccc(C(=O)N(c2ccccn2)C(C)c2ccco2)c1 (stereo not drawn),-2.9,0,-14,-7,0.4,1,-5,3,4,-1.2
O=C(Nc1ccc2c(c1)OCO2)Nc1ccc(Br)cn1,-1.7,0,-4,4,-1.3,-30,-7,.,.,.
CCOC(=O)N1CCN(C(=O)CSc2ncccn2)CC1,-3.8,-20,?,-1,1.5,-18,6,.,.,.
COc1ccc(NS(=O)(=O)c2cccc(C(=O)NNC(=O)c3ccccc3O)c2)cc1,-1.9,7,-3,-1,?,29,-9,-18,-30,0.5
Cc1ccc(C(=O)NCCNC(=O)CN2CCCC2)cc1,1.9,6,26,1,0.4,-11,2,.,.,.
CCOC(=O)/C(=N\Nc1ccccc1)c1csc(Nc2ccc(C)cc2)n1,-0.8,60*,-3,5,-0.5,9,12,-1,14,-1.8
CCn1c(CNC(=O)c2ccc(Cl)cc2)nnc1SCC(=O)NC1=NCCS1,-4.5,13,4,-6,0.7,.,-7,2,8,-0.5
O=C(c1ccc(C(F)(F)F)cc1)C1CCCN(C(=O)Cn2cnnn2)C1 (stereo not drawn),2.4,-1,16,-3,0.2,-5,-2,0,7,0.6
O=C(Nc1ccc2c(c1)oc1ccccc12)c1cccnc1,0.2,8,?,4,0.9,.,4,.,.,.
CC(C)c1[nH]nc2c1C(c1ccc(OC(=O)c3ccco3)cc1)C(C#N)=C(N)O2 (stereo not drawn),-1.8,2,-27,.,0.1,15,14,-27*,-3.3*,4.4*
C=CC[C@H](CC(=O)NCCO)C(=O)N[C@@H](COC(=O)[C@@H](CC=C)Cc1ccc(F)cc1)Cc1ccccc1,-1.4,.,.,-6,0.8,-1,-3,3,-7,2.1
O=C(c1ccc2c(=O)n(C3CCCC3)c(=S)[nH]c2c1)N1CCc2ccccc21,3.5,5,6,-6,1.1,-1,-6,.,.,.
CC(=O)c1cnn(-c2cc(Oc3cccc(C)c3)ncn2)c1C,6.9,-14,-5,-2,0.0,-1,-9,.,.,.
Cc1ccccc1OCc1nc2ccccc2c(=O)n1/N=C/c1cn[nH]c1-c1ccccc1,.,16,3,0,1.2,.,16,.,.,.
Cc1cccc(NS(=O)(=O)c2ccc(NC(=O)CN(c3cc([N+](=O)[O-])ccc3C)S(C)(=O)=O)cc2)c1,0.3,75*,8,111*,0.1,-6,30,-4,-5,-0.1
Cc1sc2nc(COC(=O)c3ccc(O)cc3)[nH]c(=O)c2c1C,0.0,-7,4,0,-0.4,.,3,-13,-7,-11
CCc1cc(CNC(=O)c2ccc(OC3CCN(C(C)=O)CC3)c(OC)c2)on1,-4.5,-21,-8,0,-0.4,-4,1,4,11,-3.1
O=c1c2ccccc2oc2cc(-c3ccc(CN4CCOCC4)cc3)ccc12,-4.6,.,.,-8,-1.1,2,7,-17,-45,-9.4
Cc1cc(C)cc(OCCCC(=O)O)c1,-2.9,7,-6,.,-0.1,-17,-3,.,.,.
COc1cccc2c(=S)c(CCC(C)=O)c(C)[nH]c12,-4.6,3,2,-4,0.5,-16,-5,-9,-5,3.6
C=CCOc1ccc(/C=C/C(=O)OCC(=O)NCCc2ccccc2)cc1,1.6,-3,-2,1,-0.2,-10,-9,-3,-5,-2.7
COC(=O)c1ccccc1S(=O)(=O)N(CCCN1CCOCC1)Cc1cccs1,-1.2,4,-6,-3,0.1,2,-2,.,.,.
CC(C)(C)c1ccc(S(=O)(=O)NC(Cc2ccccc2)C(=O)O)cc1 (stereo not drawn),-2.9,-16,13,-3,-1.2,0,-5,.,.,.
Cc1cccc(OCC(=O)NCCCNC(=O)c2cccnc2)c1,-4.4,7,-16,28,0.3,-6,14,5,9,-1.0
COc1ccc(-n2c(COc3ccc4c(c3)OCO4)nnc2SCC(=O)O)cc1,4.9,1,-4,-6,?,-2,-3,10,0,-3.0
COc1ccc2nc(SCC(N)=O)[nH]c2c1,-2.0,-8,10,-1,-0.2,-12,-16,.,.,.
CSc1ccc(/C=N/NC(=O)CNc2cccc3ccccc23)cc1,7.5,6,-5,-6,-0.2,-29,-6,-14,-6,0.5

# Further entries follow:
SMILES,LANA-H2B inh,T cruzi repl,Calb FLC,Beta cell apopt,A1 inh,ALR H2O2 inh,Beta2AR agonist,Ecoli rRNA inh,Ecoli rRNA inh OD600,Ecoli rRNA inh RFP
CC(C)SC1=NC(C)(C)C=C(/C=C/c2c(Cl)cccc2Cl)N1,-6.0,-7,2,-3,0.5,3,10,.,.,.
CCn1cc(Br)c(C(=O)Nc2ccc(F)c(Cl)c2)n1,-1.4,-6,52,6,-1.7,4,-10,.,.,.
CSc1cccc(NC(=S)N2CCC(c3ccccc3)C2)c1 (stereo not drawn),-7.0,-10,-35,.,-0.1,.,-7,-25*,-19*,-3.5*
Cc1ccccc1NC(=O)NNC(=O)c1ccc2ccccc2c1O,5.3,-6,16,5,0.3,-4,-9,6,12,2.1
O=C(c1c[nH]c2ccc(F)cc2c1=O)N1CCCCCC1,4.6,-7,-5,.,-0.3,3,-8,14,14,-0.3
CCOC(=O)c1cnc2c(Cl)cccc2c1NCCCN1CCOCC1,5.7,15,10,9,0.0,-9,-3,8,15,6.4
CN(CC(=O)Nc1c(Cl)cccc1Cl)C(=O)CC1OC(=O)c2ccccc21 (stereo not drawn),-0.6,.,.,-1,0.0,1,-1,10,20,-3.1
O=C(c1ccc2c(c1)N(Cc1cccc(Cl)c1)C(=O)c1ccccc1S2(=O)=O)N1CCN(c2ccccn2)CC1,-0.1,44,0,15,0.1,-3,-28,9,6,0.6
CC(=O)c1ccc(S(=O)(=O)NCCC(=O)OCC(=O)N2CCCC2=O)cc1,1.8,-15,1,4,0.4,-1,4,6,3,-0.9
Cn1cnc2c1c(=O)n(Cc1cccc(Br)c1)c(=O)n2C,2.4,-3,1,-3,-0.1,0,-11,.,.,.
c1cncc(CNc2ncnc3ccc(-c4cccnc4)cc23)c1,-4.7,.,.,1,-0.1,1,-4,9,22,7.2
O=C(Nc1cccc(F)c1)N1CC=C(c2ccc(Cl)cc2)CC1,6.0,55*,3,.,0.0,-1,10,.,.,.
